# MbtI inh – MbtI salicylate synthase inhibition; inhibition, %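 (about 17 µg/mL by stock and volumes)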; 100,000 tested, 0.89% active; P9WFX0; purified MbtI enzyme, fluorescence intensity read-out;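 active = above 50% in both replicates, above 80% if mildly self-fluorescent; inactive = the rest, strongly fluorescent compounds included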;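 note: 0% = mean of negative and 100% = mean of positive controls; one replicate is shown; some compounds called inactive have numbers as strong as hits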
# PV pol inh – inhibitors of poliovirus RNA polymerase binding and polymerization; AID 588519; P03300; poliovirus polymerase elongation, fluorescence polarization; hits give low values; % elongation, % (compound at 16.7 µg/mL); 150,000 tested, 0.66% active; in the data active = % elongation below about 90%; note: some results filed as inactive read as strong as hits
# Target sequence (P03300 1749-2209 limits assumed): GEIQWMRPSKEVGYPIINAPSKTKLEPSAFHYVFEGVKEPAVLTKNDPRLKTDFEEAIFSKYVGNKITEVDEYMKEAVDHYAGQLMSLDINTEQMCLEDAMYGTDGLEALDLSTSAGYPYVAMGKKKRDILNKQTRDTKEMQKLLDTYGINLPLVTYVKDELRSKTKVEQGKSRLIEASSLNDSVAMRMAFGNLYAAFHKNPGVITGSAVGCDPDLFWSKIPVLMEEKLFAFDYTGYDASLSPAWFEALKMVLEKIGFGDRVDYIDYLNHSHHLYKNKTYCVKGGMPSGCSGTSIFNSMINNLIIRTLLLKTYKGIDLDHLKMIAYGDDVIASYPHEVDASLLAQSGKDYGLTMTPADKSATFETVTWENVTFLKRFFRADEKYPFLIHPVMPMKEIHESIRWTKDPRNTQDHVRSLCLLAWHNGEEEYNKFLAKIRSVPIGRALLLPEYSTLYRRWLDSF
# Mtb MenB inh – Mtb MenB enzyme inhibition; P9WNP5; MenB enzyme assay, absorbance read-out; some hits fall short of the stated cut; inhibition, %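 (about 12 µg/mL by stock and volumes)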; 100,000 tested, 0.43% active; AID 540299;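 active = mean of two replicates above 30%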;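 note: 0% = no compound and 100% = wells with inactive enzyme; the first replicate is given; strong numbers were not always called active; inactives centre near -10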
# Target sequence (P9WNP5 whole entry, looked up): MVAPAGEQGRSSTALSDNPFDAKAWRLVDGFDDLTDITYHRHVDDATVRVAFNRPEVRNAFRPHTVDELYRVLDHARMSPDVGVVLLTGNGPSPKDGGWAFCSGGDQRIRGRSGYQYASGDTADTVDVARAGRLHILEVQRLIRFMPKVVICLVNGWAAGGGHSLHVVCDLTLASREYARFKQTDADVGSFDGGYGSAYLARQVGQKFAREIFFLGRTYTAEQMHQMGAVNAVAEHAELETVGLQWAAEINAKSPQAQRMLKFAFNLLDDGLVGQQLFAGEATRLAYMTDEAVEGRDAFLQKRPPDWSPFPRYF
# PV pol inh intensity – further read-out of PV pol inh, marked with its call; % elongation; measured here: total intensity read-out; formula for this scale not given here;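 total fluorescence in place of polarization; lower means less elongation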
# * hit, by the source's call; . = no result given; & = joins results of further samples.
SMILES,MbtI inh,PV pol inh,PV pol inh intensity,Mtb MenB inh
O=C(NCN1CCCCC1)C12CC3CC(CC(C3)C1)C2,.,100,108,0
C=CCNC(=O)C1CC(=O)N(c2ccc(OCC(=O)Nc3ccc(F)c(Cl)c3)cc2)C1 (stereo not drawn),-11,104,107,-44
CCN(CC)C(=O)N[C@H]1C[C@@H]2c3cccc4[nH]cc(c34)C[C@H]2N(C)C1,-13,99,101,-15
Cc1cnc(C(=O)Nc2ccc(N3CCCCC3)cc2)cn1,-12,103,106,.
CCCS(=O)(=O)n1nc(-c2ccccc2)cc1N,-3,104,103,2
Clc1c2c(nn1-c1ccccc1)CCCC2,11,102,105,.
CN1CCN(C(=O)CCc2nc3ccccc3c(=O)[nH]2)CC1,3,97,109,-2
CC1=CN2C(=O)C(Cc3ccccc3)(NC(=O)c3ccccc3)N=C2C=C1 (stereo not drawn),86,105,102,-12
O=C1CC(C(=O)O)C2(CCCC2)O1 (stereo not drawn),-3,106,100,-41
CN1CCN(C(C#N)c2ccc(O)cc2)CC1 (stereo not drawn),2,104,104,-14
O=C(CCN1CCN(C(c2ccccc2)c2ccccc2)CC1)N/N=C/c1ccc(O)cc1O,-12,101,103,-140
Cc1ccc2cc3c(=O)n(C)c(=O)n(C)c3nc2c1,30,103,103,-20
O=C(CSc1nc2c(c(=O)n1-c1ccccc1)SCC2)N1CCCC1,2,101,104,-11
O=C(O)CCNC(=O)c1ccc(Br)o1,-8,99,100,-1
N#Cc1ccc(COC(=O)c2cncn2-c2ccc(F)cc2)cc1,12,101,104,-2
CCC(C)Nc1nc(-c2ccc(Cl)cc2)cs1 (stereo not drawn),9,104,106,.
Cc1ccc(C(=O)NCC2COc3ccccc3O2)o1 (stereo not drawn),-1,103,106,10
Cc1ccc(Cn2cccc(NS(C)(=O)=O)c2=O)cc1,58,100,100,-25
Cc1cc(=O)oc2cc(OCC(=O)OCc3cn4cc(Cl)ccc4n3)ccc12,-154,105,102,0
O=C(COc1ccc(-n2cnnn2)cc1)NCCc1ccc(F)cc1,-4,100,88,13
COC(C(=O)Nc1ccc2c(c1)OCO2)c1ccccc1 (stereo not drawn),-13,100,102,-1
O=C(OCC1CCCN2CCCCC12)c1ccc2c(c1)OCO2 (stereo not drawn),.,114,112,-6
COc1ccc(N2CCN(c3c(S(=O)(=O)c4ccccc4)cnc4ccc(Cl)cc34)CC2)cc1,1,101,104,-63
CCOC(=O)CSc1nc2cccnc2s1,15,96,116,6
Cc1ccc(C(O)(c2nc3ccccc3[nH]2)C(F)(F)F)c(O)c1 (stereo not drawn),.,109,100,-24
CCOC(=O)c1c(/C=C/C(=O)O)c(C)n(CC)c1C,23,100,104,-3
O=C(c1cn[nH]c1)c1cc(Cl)cc(Cl)c1O,0,107,114,-11
O=C(c1ccc2ccccc2n1)n1nc2ccccc2n1,9,105,102,.
COC(=O)c1cc2cc(Br)ccc2oc1=O,0,102,102,-5
COc1ccc(Nc2cc(C(F)(F)F)ccc2Cl)c(C(=O)O)c1,0,99,105,9
CC1SC(c2ccc(F)cc2)NC1=O (stereo not drawn),.,106,110,-17
Cc1cc2n(n1)C(/C=C\c1ccccc1)Nc1c(C)cccc1-2 (stereo not drawn),4,100,94,-31
O=C(Nc1ccc(OC(F)(F)F)cc1)NC1CCN(c2nccc(C(F)(F)F)n2)CC1,-11,107,106,-3
CCN(CC)C(=O)COc1ccc(-c2nnc(Nc3ccc(OC)c(C(N)=O)c3)c3ccccc23)cc1,-4,101,107,-26
COc1ccc(C(=O)N2CCN(c3ccc(N4CCOCC4)nn3)CC2)cc1,10,102,99,-1
COC(=O)c1c(I)cnn1C,.,99,103,-25
COC(=O)c1nc[nH]c1C(=O)OC,.,100,100,14
Cc1cc(-c2ccc(S(=O)(=O)N3CCc4ccccc4C3)s2)n[nH]1,37,99,101,-10
O=C(O)Cc1c(Sc2ccccc2)c2ccccc2n1Cc1ccccc1,.,103,92,-16
Cc1nc(SC2CCCCN(C(=O)c3ccc(Cl)cc3)C2=O)c2c3c(sc2n1)CCCC3 (stereo not drawn),-8,100,105,-13

# Reformatted: entries from further up.
canonical_smiles	MbtI inh	PV pol inh	PV pol inh intensity	Mtb MenB inh
Cc1nc(SC2CCCCN(C(=O)c3ccc(Cl)cc3)C2=O)c2c3c(sc2n1)CCCC3 (stereo not drawn)	-8	100	105	-13
Cc1ccc(C(O)(c2nc3ccccc3[nH]2)C(F)(F)F)c(O)c1 (stereo not drawn)	.	109	100	-24
Cc1cc2n(n1)C(/C=C\c1ccccc1)Nc1c(C)cccc1-2 (stereo not drawn)	4	100	94	-31
O=C(OCC1CCCN2CCCCC12)c1ccc2c(c1)OCO2 (stereo not drawn)	.	114	112	-6

# Fetched by compound from above (3):
SMILES,MbtI inh,PV pol inh,PV pol inh intensity,Mtb MenB inh
Cc1cc2n(n1)C(/C=C\c1ccccc1)Nc1c(C)cccc1-2 (stereo not drawn),4,100,94,-31
COC(=O)c1cc2cc(Br)ccc2oc1=O,0,102,102,-5
O=C(Nc1ccc(OC(F)(F)F)cc1)NC1CCN(c2nccc(C(F)(F)F)n2)CC1,-11,107,106,-3

# (listing goes on)
SMILES,MbtI inh,PV pol inh,PV pol inh intensity,Mtb MenB inh
N#Cc1c(NC(=O)C2CCCO2)sc2c1CCC2 (stereo not drawn),17,103,106,4
CC1(C)CC(NC(=O)c2ccc(-n3cnnn3)cc2)CC(C)(C)N1,.,101,106,-34
CC(C)c1ccc(NN2C(=O)CC(c3ccccc3)C2=O)cc1 (stereo not drawn),-5,102,106,-4
CCN(CCS(=O)(=O)c1ccccc1)S(=O)(=O)c1ccc(C)cc1,-14,104,106,-7
COc1ccccc1NC(=O)Nc1ccccc1,2,99,100,-32
COc1ccccc1C(=O)NCC(=O)O,0,100,101,35*
C=CCNC(=O)Cn1nc(-c2ccccc2F)ccc1=O,-1,102,103,5
O=C(O)CCSc1nnc(-c2cccs2)o1,39,.,.,-4
CNCc1ccc(OC)cc1,6,102,107,-4
CC/C(C)=N/NS(=O)(=O)c1ccccc1,6,101,101,9
CCc1ccc(C(=O)CCC(=O)O)s1,27,102,102,-26
CN1CCN(C(CNC(=O)Cc2ccc(F)cc2)c2ccc(F)cc2)CC1 (stereo not drawn),-4,102,110,-25
COc1cc(C(=O)COC(=O)C2CC(=O)N(Cc3ccco3)C2)cc(OC)c1OC (stereo not drawn),9,104,105,-23
O=C(OCCCN1CCCCC1)c1ccc(O)cc1,.,103,104,11
ClCc1csc(-c2ccccc2)n1,8,99,104,.
CCOc1ncccc1C(=O)NNc1ccc(S(=O)(=O)N2CCN(C)CC2)cn1,-6,110,101,-27
O=C(/C=C/c1ccc(S(=O)(=O)N2CCOCC2)cc1)N(c1ccccn1)C1CCCCC1,9,100,106,-2
COc1ccccc1CN(C(C)=O)C1CC(C)(C)N(C(C)=O)C(C)(C)C1,.,101,105,-14
CN(C)c1ccc(NC(=O)NCc2ccccc2)cc1,-5,103,104,-18
C#CCOc1ccc2ccccc2c1CO,6,98,100,-22
O=C(Nc1sccc1C(=O)N1CCOCC1)c1cccnc1,-1,101,105,-24
N=c1sccn1CC(=O)O,.,101,103,-2
NC(=O)c1c(O)c2c([nH]c1=O)CCCC2,-3,104,104,-27
O=C(Nc1nncs1)C12CC3CC(CC(C3)C1)C2,-6,104,103,.
Cc1c(N)cccc1-c1nc2ccccc2o1,113,102,104,-8
Cc1noc2ncnc(Nc3ccccc3)c12,6,103,101,-21
Cc1cc(C)c(C#N)c(SCCCCN2C(=O)c3ccccc3C2=O)n1,10,.,.,2
[O-]c1nn(-c2cccc(Cl)c2)n[n+]1-c1cccc(Cl)c1,2,105,100,.
COC(=O)N1CCN(CCc2ccccc2)CC1,-7,99,101,-6
CCC(=O)c1ccc(OCC(=O)N2Cc3ccccc3CC2C(=O)O)cc1 (stereo not drawn),-1,98,105,-38
Cc1nc2ccc(NC(=O)C3CC3)cc2c(=O)n1Cc1ccc(F)cc1,11,103,104,-37
CSc1nnc(Cc2cc(=O)[nH]c(=O)[nH]2)n1-c1ccccc1,5,102,106,-64
O=C(O)CC(N=C1NS(=O)(=O)c2ccccc21)c1ccc(Cl)cc1 (stereo not drawn),-4,100,97,2
C=CC(=O)NC(C)(C)Cc1ccccc1,-8,104,101,-22
O=C(CCCCCN1C(=O)C2C3C=CC(C3)C2C1=O)Nc1ncccc1O (stereo not drawn),6,99,101,12
COC(=O)C1=CN(C)C=C(C(=O)OC)C1c1ccc(OC)cc1,-2,102,102,-16
COc1ccc(N(Cc2nnc3n2CCCCC3)C(=O)Nc2ccccc2)cc1,-9,100,102,-11
CCc1ccc(N(CC)c2ncnc3c2nc2n3CCCCC2)cc1,-12,105,107,-23
O=C(COc1ccc(Cl)cc1)N1CCN(Cc2ccc3c(c2)OCO3)CC1,-10&-14,100&101,101&103,4&-4
O=c1[nH]c(CSc2nc3ccccc3o2)nc2ccccc12,.,102,104,-2
CCc1ccc(OCC(=O)N/N=C(\C)c2ccc(-n3ccnc3)cc2)cc1,10,103,106,0
Cc1noc2c1C(c1ccccc1)C1=C(CC(C)(C)CC1=O)N2 (stereo not drawn),4,100,103,.
CCc1ccc(NC(=O)Nc2nnc(N(CC(C)C)CC(C)C)s2)cc1,-3,102,106,-3
CC1=CC(C)(C)N(C(=O)CSc2ccccn2)c2ccccc21,.,103,104,-5
COC(=O)c1cc(NC2c3ccccc3C(=O)N2c2ccccn2)cc(C(=O)OC)c1 (stereo not drawn),0,102,100,4
CC(C)(C)OC(=O)N1CCC(CNC(=O)Nc2ccccc2)CC1,-13,103,101,8
CC(=O)Nc1c(-c2ccccc2)nc2cc(C)ccn12,-50,102,103,5
CCn1c(=O)c2cc(C(=O)NCCN(C)C)sc2c2ccccc21,104,98,101,-5
Cn1c(SCC(=O)NC(C)(C)C)nnc1-c1ccccc1,-10,98,101,-2
NC(=O)Cc1coc2ccc3ccccc3c12,28,101,105,12
c1csc(-c2ccc(-c3ccn[nH]3)s2)c1,65,103,100,-24
Cc1ccc(C(=O)OC(C)CN2C(C)CCCC2C)cc1 (stereo not drawn),-3,103,100,-16
CCOCCCn1c(NN)nc2ccccc2c1=O,14,104,111,-17
COc1ccc(NC(=O)n2ncc3cc(Cl)ccc32)cc1,-7,104,102,-19
O=C(CSc1ccccc1)c1ccccc1,.,79*,75*,-6
CCCn1c(N)cc(=O)[nH]c1=O,-22,107,105,-18
COc1cccc(-c2nn(-c3ccc(F)cc3)cc2C(=O)N2CCN(c3ccccc3O)CC2)c1,-3,100,101,-22
COc1ccccc1-n1c(C)cc(/C=C(\C#N)C(=O)OCc2nnc(-c3ccccc3)o2)c1C,-14,111,114,-69
CN(CC(=O)NCCc1ccc(Cl)cc1)CC1COc2ccccc2O1 (stereo not drawn),-4,.,.,-25
COCCn1c(C)cc(C(=O)COC(=O)c2ccc3c(=O)n4c(nc3c2)CCCCC4)c1C,-1,102,109,-13
# (next part)
SMILES,MbtI inh,PV pol inh,PV pol inh intensity,Mtb MenB inh
Cc1cc(-c2ccc(C)c(S(=O)(=O)NCCCN3CCCCCC3)c2)on1,-6,100,101,-11
COc1cccc(C2=NOC(C(=O)NCC3CCCO3)C2)c1 (stereo not drawn),-1,103,107,1
Cc1[nH]c(=O)c(C#N)c(C)c1CCC(=O)N[C@@H](Cc1ccccc1)c1nc2ccccc2[nH]1,21,107,104,-12
CS(=O)(=O)N(Cc1cccc(F)c1)n1c(SCc2cccc(F)c2)nc2ccccc2c1=O,8,100,105,-16
CC(C)n1ncc2c(C(=O)O)cc(C3CC3)nc21,102,104,105,13
CNC(C)(C)Cc1ccccc1,0&-16,102&65,101&192,6&0
Cc1cccc2nc(CSC3=Nc4ccccc4C4=NC(CCC(=O)NCc5ccco5)C(=O)N34)cc(=O)n12 (stereo not drawn),13,103,103,-13
N#Cc1c2c(c(NCC3CCCO3)n3c1nc1ccccc13)CCCC2 (stereo not drawn),-6,100,107,-35
O=C1CCCN1Cc1nnc(SCc2c(Cl)cccc2Cl)o1,-10,103,101,-14
CC(OC(=O)C1CCN(c2ccc(C(F)(F)F)cn2)CC1)C(=O)N(C)c1ccccc1 (stereo not drawn),-4,107,106,-23
CN1CCC(OC(=O)COc2ccccc2)CC1,.,102,96,-14
CC(C)(C)c1ccc(C23OC(=O)C(C)(C)C2OC(=O)C3(C)C)cc1 (stereo not drawn),.,99,100,-14
O=C(NCC[n+]1ccc2ccccc2c1)c1ccccc1,.,105,96,-5
CCOc1ccc(N2C(=O)c3ccc(OC)c(OC)c3C2=O)cc1,-7,97,103,7
Cc1ccc(S(=O)(=O)n2ncc3c2CCN(C(=O)OC(C)(C)C)C3)cc1,-4,100,104,8
O=C(OCCNc1c(F)c(F)nc(F)c1F)c1ccccc1,14,102,98,-4
O=C(CSc1nnc2n1CCCCC2)NCc1ccco1,-6,102,107,5
O=C(NCCC1=CCCCC1)Nc1ccc(Cl)cc1,-5,101,103,1
Nc1nc2c(ncn2COCCO)c(=O)[nH]1,-1&-4,102&100,102&103,8&3
c1ccc2c(c1)-c1ccccc1C2C1CCNCC1,-2,102,101,.

# Structural class: the compounds so far with bromine
SMILES,MbtI inh,PV pol inh,PV pol inh intensity,Mtb MenB inh
O=C(O)CCNC(=O)c1ccc(Br)o1,-8,99,100,-1
COC(=O)c1cc2cc(Br)ccc2oc1=O,0,102,102,-5

# Assay outcomes deposited in PubChem by ICCB-Longwood Screening Facility, Harvard Medical School.
